Assay outcomes from PubChem.
Vaccinia inh: blocks a specific stage of Vaccinia orthopoxvirus infection; activity change (mCherry), % (no concentration beside the values); AID 1053133; 0.01% of 89,000 active; Vaccinia-infected cells, mCherry/Venus stage reporter fluorescence; hits give low values; some inactives read as strong as hits;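 active = mCherry past -33% and 40 or more points under the early reporter, replicates agreeing; inconclusive = past -33% without that gap or agreement; tested in A549 cells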;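 note: scaled between vehicle wells and reference inhibitor wells; 23 nL library stock went into each well; one replicate is shown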
Vaccinia inh Venus: also measured in Vaccinia inh; calls as there; activity change (Venus), %; measured here: Venus reporter, other viral stage;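 negative = less Venus signal; first of two replicates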
Numbers without * were called inactive; ? = inconclusive; nt = not tested or not shown; & = joins results of further samples.

SMILES | Vaccinia inh | Vaccinia inh Venus
CCCNC(=O)C[C@@H]1CC[C@H]2[C@H](COc3ccc(NS(=O)(=O)CC)cc3C(=O)N2C)O1 | -1 | 3
COc1cccc(C#Cc2ccc([C@H]3[C@@H](CO)N(C(=O)C4CCC4)[C@H]3C#N)cc2)c1 | -4 | 2
COCC(=O)Nc1ccc2c(c1)C(=O)N(C)[C@@H]1CC[C@@H](CC(=O)NCC3CC3)O[C@@H]1CO2 | 17 | 12
CN(C)C(=O)[C@@H]1[C@@H](CO)[C@@H]2Cn3c(ccc(C4=CCCCC4)c3=O)[C@@H]2N1C(=O)c1ccccc1F | 17 | 14
COc1ccccc1-c1cn(CC[C@@H]2CC[C@H](NC(=O)C3CCOCC3)[C@H](CO)O2)nn1 | 4 | 5
C[C@H](CO)N1C[C@H](C)[C@@H](CN(C)Cc2ccc(-c3ccccc3)cc2)Oc2ccc(NS(C)(=O)=O)cc2C1=O | 28 | 14
C[C@H]1CN([C@@H](C)CO)C(=O)Cc2cc(NC(=O)C3CC3)ccc2O[C@@H]1CN(C)CC1CC1 | 1 | 0
COc1ccccc1NC(=O)N[C@@H]1CC[C@H](CC(=O)N2CCC(Cc3ccccc3)CC2)O[C@H]1CO | -29 | -19
Cc1noc(C)c1NC(=O)N(C)C[C@H]1OCCCC[C@H](C)Oc2ccc(NC(=O)c3ccccc3)cc2C(=O)N([C@@H](C)CO)C[C@@H]1C | 12 | 4
C[C@@H]1CN([C@H](C)CO)C(=O)CCCn2nncc2CO[C@@H]1CN(C)C(=O)Nc1ccc(N2CCCCC2)cc1 | 16&12 | 18&17
C[C@H](CO)N1C[C@H](C)[C@H](CN(C)S(=O)(=O)c2ccc(C#N)cc2)Oc2ncc(C#CC(C)(C)O)cc2C1=O | 4 | -5
CC(=O)N1CC2(C1)[C@H](c1ccccc1)[C@H](CO)N2Cc1cccc(Cl)c1 | -6 | 0
O=C(Nc1ccccc1F)N1CCCCN2[C@H](CO)[C@@H](c3ccc(C#Cc4ccccc4)cc3)[C@H]2C1 | ? | nt
COc1ccc2c3c([nH]c2c1)[C@@H](CO)N(C(=O)Nc1ccc(F)cc1)CC31CCN(S(=O)(=O)c2cccs2)CC1 | -24 | -15
Cc1noc(C)c1S(=O)(=O)Nc1ccc2c(c1)C(=O)N([C@@H](C)CO)C[C@H](C)[C@H](CN(C)Cc1ccc(C(=O)O)cc1)OCCCC[C@@H](C)O2 | 11 | 2
COc1ccc(S(=O)(=O)N(C)C[C@H]2Oc3ccc(NC(=O)Nc4ccc(C(F)(F)F)cc4)cc3C(=O)N([C@H](C)CO)C[C@H]2C)cc1 | ? | nt
COc1ccccc1S(=O)(=O)N[C@@H]1CC[C@@H](CCNC(=O)C2CCOCC2)O[C@@H]1CO | 6 | 1
C[C@H](CO)N1C[C@H](C)[C@@H](CN(C)Cc2ccc(Cl)c(Cl)c2)Oc2c(NS(=O)(=O)c3ccccc3)cccc2C1=O | -5&-29 | 3&-16
O=C(N[C@H]1CC[C@@H](CCn2cc(Cc3ccccc3)nn2)O[C@H]1CO)c1ccccn1 | 1 | 8
C[C@@H]1CN([C@H](C)CO)S(=O)(=O)c2ccc(-c3cncnc3)cc2O[C@@H]1CN(C)C(=O)Cc1ccccc1 | 5 | 2
C[C@@H]1CCCCO[C@H](CN(C)S(=O)(=O)c2ccccc2)[C@@H](C)CN([C@@H](C)CO)C(=O)c2cc(NC(=O)Nc3cccc4ccccc34)ccc2O1 | 21 | 11
C[C@@H]1CN([C@H](C)CO)C(=O)c2cc(NC(=O)C3CC3)ccc2O[C@@H]1CN(C)Cc1ccc(-c2ccccc2)cc1 | -31 | -18
C[C@@H]1CN([C@H](C)CO)C(=O)c2cccc(NS(=O)(=O)c3ccc(F)cc3)c2O[C@H]1CN(C)C(=O)Nc1ccc2c(c1)OCO2 | 32 | 29
O=C(C[C@H]1CC[C@H](NC(=O)Nc2cccc(F)c2)[C@@H](CO)O1)NCC1CCCCC1 | -1 | -1
COc1cccc(-c2cnc3c(c2)C(=O)N([C@@H](C)CO)C[C@H](C)[C@@H](CN(C)C(=O)Nc2ccccc2F)O3)c1 | -1 | 1
COc1ccc2c3c([nH]c2c1)[C@H](CO)N(C(=O)CN(C)C)CC31CCN(Cc2ccncc2)CC1 | 6 | 1
C[C@H](NC(=O)C[C@@H]1C[C@H]2c3cc(NC(=O)C4CCOCC4)ccc3O[C@H]2[C@@H](CO)O1)c1ccccc1 | -4 | 7
Cn1cnc(S(=O)(=O)N[C@H]2CC[C@@H](CC(=O)Nc3ccccc3)O[C@H]2CO)c1 | 5 | 4
CCCNC(=O)N(C)C[C@@H]1Oc2ncc(-c3ccccc3)cc2C(=O)N([C@H](C)CO)C[C@@H]1C | 16 | 2
CCCNC(=O)NC[C@@H]1[C@@H](c2ccc(C3=CCCCC3)cc2)[C@H](CO)N1C(C)=O | -12 | -1
Cn1cnc(S(=O)(=O)N[C@@H]2C=C[C@@H](CC(=O)NCC3CCCCC3)O[C@@H]2CO)c1 | 6 | 1
CO[C@@H]1CN(C)C(=O)c2ccc(NC(=O)CC(F)(F)F)cc2OC[C@H](C)N(C(=O)C2CC2)C[C@H]1C | 17 | 13
CCCNC(=O)[C@H]1[C@H](CO)[C@H]2Cn3c(ccc(-c4cncnc4)c3=O)[C@H]2N1C(=O)c1ccccc1F | 11 | -1
CN1C(=O)c2cc(NS(=O)(=O)c3ccccc3F)ccc2OC[C@H]2O[C@H](CC(=O)NC3Cc4ccccc4C3)CC[C@H]21 | 11 | 10
C[C@@H]1CCCCO[C@@H](CN(C)S(=O)(=O)c2ccccc2)[C@@H](C)CN([C@@H](C)CO)C(=O)c2cc(NS(=O)(=O)c3ccc(F)cc3)ccc2O1 | -1 | 0
O=C(OC(C(=O)NCc1ccccc1)c1ccco1)c1ccccc1 (stereo unspecified) | 15 | 20
C[C@@H]1CN([C@H](C)CO)C(=O)c2cc(NS(=O)(=O)c3cccs3)ccc2O[C@@H](C)CCCCO[C@@H]1CN(C)Cc1ccc(C(=O)O)cc1 | 21 | 15
C[C@@H]1CN([C@H](C)CO)C(=O)Cc2cc(NC(=O)CCC(F)(F)F)ccc2O[C@H]1CN(C)Cc1ccncc1 | 12 | -1
CO[C@@H]1CN(C)C(=O)c2cc(NS(=O)(=O)CC(F)(F)F)ccc2OC[C@H](C)N(Cc2ccccn2)C[C@@H]1C | 6 | 10
CN1C(=O)c2cc(NC(=O)C3CCC3)ccc2OC[C@@H]2O[C@@H](CC(=O)NCCc3ccncc3)CC[C@@H]21 | 14 | 11
CC(C)NC(=O)N(C)C[C@H]1Oc2ncc(-c3ccccc3F)cc2C(=O)N([C@H](C)CO)C[C@@H]1C | 17 | 19
C[C@H]1CN([C@@H](C)CO)C(=O)c2c(c3ccccc3n2C)-c2ccccc2CO[C@@H]1CN(C)S(=O)(=O)c1ccc(C(F)(F)F)cc1 | ? | nt
O=C(C[C@@H]1CC[C@H](NC(=O)Nc2ccccc2)[C@H](CO)O1)NCc1cccc(F)c1 | -5 | 2
O=C(Cc1cccnc1)N1CCCCN2[C@H](CO)[C@H](c3ccc(C#CC4(O)CCCC4)cc3)[C@@H]2C1 | -21 | -12
Cc1ccc(S(=O)(=O)N(C)C[C@H]2Oc3c(NC(=O)Nc4ccc(F)cc4)cccc3C(=O)N([C@H](C)CO)C[C@@H]2C)cc1 | -22 | -6
C[C@@H]1CN([C@@H](C)CO)C(=O)c2cccc(NC(=O)C3CCOCC3)c2O[C@@H]1CN(C)Cc1ccc(Oc2ccccc2)cc1 | -11 | -13
COc1ccccc1S(=O)(=O)N[C@H]1CC[C@@H](CCNC(=O)C2CCCCC2)O[C@H]1CO | 0 | 1
CCN(C[C@H]1[C@@H](c2ccccc2)[C@@H](CO)N1CC1CC1)C(=O)c1ccccc1F | 10 | 6
C/C=C/c1ccc2c(c1)O[C@H](CN(C)C(=O)Nc1ccc(F)cc1)[C@@H](C)CN([C@H](C)CO)S2(=O)=O | ? | nt
C[C@H]1CN([C@@H](C)CO)C(=O)Cc2cc(NC(=O)c3ccncc3)ccc2O[C@@H]1CN(C)Cc1ccc(Oc2ccccc2)cc1 | -1 | -1
CO[C@@H]1CN(C)C(=O)c2cc(NC(C)=O)ccc2OC[C@H](C)N(Cc2cncnc2)C[C@H]1C | 15 | 0
CCNC(=O)C[C@@H]1C=C[C@@H](NS(=O)(=O)c2ccc(F)cc2)[C@@H](CO)O1 | -1 | 7
C[C@@H]1CN([C@@H](C)CO)C(=O)c2cc(-c3ccccc3)cnc2O[C@H]1CN(C)C | 5 | 4
C[C@@H]1CN([C@H](C)CO)C(=O)c2cc(-c3ccncc3)cnc2O[C@@H]1CN(C)C(=O)C1CCCCC1 | 16 | 7
C[C@H](CO)N1C[C@H](C)[C@H](CN(C)C)OCCCC[C@H](C)Oc2ccc(NS(C)(=O)=O)cc2C1=O | -2 | 6
Cc1noc(C)c1NC(=O)N(C)C[C@H]1OCCCC[C@H](C)Oc2ccc(NC(=O)c3ccccc3)cc2C(=O)N([C@@H](C)CO)C[C@H]1C | 25 | 2
O=S(=O)(c1ccccc1)N1C[C@@H]2N[C@H](C1)C2c1ccc(-c2ccc(F)cc2)cc1 (stereo partly specified) | ? | 7
CCCNC(=O)N1[C@H](C#N)[C@H](c2ccc(-c3ccc(C(=O)N(C)C)cc3)cc2)[C@H]1CO | 12 | 3
COCC#Cc1ccc(CC[C@H]2O[C@H]3CC[C@H](CO)O[C@H]3C[C@H]2n2cc(C3(O)CCCC3)nn2)cc1 | -8 | -5
C[C@@H]1CN([C@H](C)CO)S(=O)(=O)c2ccc(C#CCN(C)C)cc2O[C@@H]1CN(C)S(C)(=O)=O | 4 | 7

In the list so far, 2 have a COOH group.
SMILES | Vaccinia inh | Vaccinia inh Venus
Cc1noc(C)c1S(=O)(=O)Nc1ccc2c(c1)C(=O)N([C@@H](C)CO)C[C@H](C)[C@H](CN(C)Cc1ccc(C(=O)O)cc1)OCCCC[C@@H](C)O2 | 11 | 2
C[C@@H]1CN([C@H](C)CO)C(=O)c2cc(NS(=O)(=O)c3cccs3)ccc2O[C@@H](C)CCCCO[C@@H]1CN(C)Cc1ccc(C(=O)O)cc1 | 21 | 15

2 of the compounds above, field by field.
COc1ccccc1S(=O)(=O)N[C@@H]1CC[C@@H](CCNC(=O)C2CCOCC2)O[C@@H]1CO
- Vaccinia inh = 6
- Vaccinia inh Venus = 1

C[C@H](CO)N1C[C@H](C)[C@@H](CN(C)Cc2ccc(Cl)c(Cl)c2)Oc2c(NS(=O)(=O)c3ccccc3)cccc2C1=O
- Vaccinia inh = -5&-29
- Vaccinia inh Venus = 3&-16

Shown field by field: 4 of the compounds above.
CCNC(=O)C[C@@H]1C=C[C@@H](NS(=O)(=O)c2ccc(F)cc2)[C@@H](CO)O1
  Vaccinia inh: -1
  Vaccinia inh Venus: 7

C[C@@H]1CN([C@@H](C)CO)C(=O)c2cccc(NC(=O)C3CCOCC3)c2O[C@@H]1CN(C)Cc1ccc(Oc2ccccc2)cc1
  Vaccinia inh: -11
  Vaccinia inh Venus: -13

C[C@H]1CN([C@@H](C)CO)C(=O)Cc2cc(NC(=O)c3ccncc3)ccc2O[C@@H]1CN(C)Cc1ccc(Oc2ccccc2)cc1
  Vaccinia inh: -1
  Vaccinia inh Venus: -1

O=S(=O)(c1ccccc1)N1C[C@@H]2N[C@H](C1)C2c1ccc(-c2ccc(F)cc2)cc1 (stereo partly specified)
  Vaccinia inh: ?
  Vaccinia inh Venus: 7

Following part:
SMILES | Vaccinia inh | Vaccinia inh Venus
COc1ccccc1NC(=O)N(C)C[C@@H]1OCc2cn(nn2)CCCC(=O)N([C@@H](C)CO)C[C@@H]1C | 3 | 0
C[C@@H]1CN([C@@H](C)CO)C(=O)Cc2cc(NC(=O)Nc3ccc(F)cc3)ccc2O[C@@H]1CN(C)C(=O)Nc1ccc(F)cc1 | 20 | 5
N#Cc1cccc(-c2ccc([C@@H]3[C@H]4CN(C(=O)Cc5cccnc5)CCCCN4[C@H]3CO)cc2)c1 | 12 | 3
CC(=O)Nc1ccc2c(c1)C(=O)N(C)[C@H]1CC[C@@H](CC(=O)Nc3cn(C)nc3C)O[C@@H]1CO2 | 5 | 5
CC(C)(C)[C@@H]1C=C(C(=O)N2CCN(Cc3ccccc3)CC2)O[C@H](OCCCCO)C1 | 13 | 10
C[C@@H]1CCCCO[C@@H](CN(C)Cc2ccccc2)[C@@H](C)CN([C@@H](C)CO)C(=O)c2cc(NC(=O)C3CCCCC3)ccc2O1 | ? | nt
CN(C)CC(=O)Nc1ccc2c(c1)[C@H]1C[C@@H](CC(=O)NC3CCCC3)O[C@H](CO)[C@H]1O2 | 16 | 13
C[C@@H]1CN([C@H](C)CO)C(=O)Cc2cc(NC(=O)CCCCCC(=O)Nc3ccccc3N)ccc2O[C@@H]1CN(C)Cc1ccc(-c2ccccc2)cc1 | ? | nt
COc1ccc(C[C@@H]2CCn3cc(nn3)COC[C@H](Cc3ccccc3)NC2=O)cc1 | 25 | 17
C[C@@H]1CN([C@H](C)CO)C(=O)Cc2cc(NC(=O)Cc3ccccc3)ccc2O[C@@H]1CN(C)Cc1ccc(C(F)(F)F)cc1 | ? | nt
C[C@H](CO)N1C[C@H](C)[C@@H](CN(C)Cc2ccc(-c3ccccc3)cc2)Oc2ccc(NC(=O)Nc3ccc(F)cc3)cc2CC1=O | -7 | 0
CCC(=O)N1[C@H](C(=O)OC)[C@@H](CO)[C@@H]2Cn3c(ccc(-c4cccc(F)c4)c3=O)[C@@H]21 | 0 | -1
C[C@@H](NC(=O)[C@H]1[C@H](CO)[C@H]2Cn3c(ccc(C4=CCCC4)c3=O)[C@H]2N1C)c1ccccc1 | -8 | -6
CCC(=O)N(C)C[C@@H]1Oc2cc(-c3ccncc3)ccc2S(=O)(=O)N([C@@H](C)CO)C[C@@H]1C | 21 | 13
C[C@@H]1CN([C@H](C)CO)C(=O)c2ccccc2-c2ccccc2CO[C@@H]1CN(C)C(=O)Nc1cccc(C(F)(F)F)c1 | -27 | -24
O=C(C[C@H]1CC[C@@H]2[C@H](COC[C@@H](O)CN2S(=O)(=O)c2ccc(F)cc2)O1)NCCN1CCCCC1 | -6 | -4
CN(C)C(=O)C[C@H]1CC[C@@H]2[C@H](COC[C@H](O)CN2S(=O)(=O)c2ccccc2Cl)O1 | 20 | 8

Some of the compounds tested, so the mix of outcomes need not match the whole.
